# Mtb MenB inh: inhibitors of Mycobacterium tuberculosis MenB enzyme; P9WNP5; inhibition, %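 (about 12 µg/mL by stock and volumes)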; hit rate 0.43% among 100,000; MenB enzyme assay, absorbance read-out; some hits fall short of the stated cut;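 active = mean of two replicates above 30%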;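 also: 0% = no compound and 100% = wells with inactive enzyme; the first replicate is given; strong numbers were not always called active; inactives centre near -10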
# Target sequence (P9WNP5 whole entry, looked up): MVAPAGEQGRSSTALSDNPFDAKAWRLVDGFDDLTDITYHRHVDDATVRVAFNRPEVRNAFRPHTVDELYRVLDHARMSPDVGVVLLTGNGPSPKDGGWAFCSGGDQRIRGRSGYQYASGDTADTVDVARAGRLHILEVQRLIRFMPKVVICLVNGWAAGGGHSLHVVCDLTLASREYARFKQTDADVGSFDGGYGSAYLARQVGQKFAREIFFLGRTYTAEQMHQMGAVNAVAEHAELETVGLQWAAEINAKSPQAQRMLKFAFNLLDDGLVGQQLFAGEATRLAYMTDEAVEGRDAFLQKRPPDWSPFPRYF
# PV pol inh: inhibitors of poliovirus RNA polymerase binding and polymerization | % elongation, % (compound at 16.7 µg/mL) | hit rate 0.66% among 150,000 | poliovirus polymerase elongation, fluorescence polarization; stronger effect = lower value; in the data active = % elongation below about 90%; also: some results filed as inactive read as strong as hits
# Target sequence (P03300 1749-2209 limits assumed): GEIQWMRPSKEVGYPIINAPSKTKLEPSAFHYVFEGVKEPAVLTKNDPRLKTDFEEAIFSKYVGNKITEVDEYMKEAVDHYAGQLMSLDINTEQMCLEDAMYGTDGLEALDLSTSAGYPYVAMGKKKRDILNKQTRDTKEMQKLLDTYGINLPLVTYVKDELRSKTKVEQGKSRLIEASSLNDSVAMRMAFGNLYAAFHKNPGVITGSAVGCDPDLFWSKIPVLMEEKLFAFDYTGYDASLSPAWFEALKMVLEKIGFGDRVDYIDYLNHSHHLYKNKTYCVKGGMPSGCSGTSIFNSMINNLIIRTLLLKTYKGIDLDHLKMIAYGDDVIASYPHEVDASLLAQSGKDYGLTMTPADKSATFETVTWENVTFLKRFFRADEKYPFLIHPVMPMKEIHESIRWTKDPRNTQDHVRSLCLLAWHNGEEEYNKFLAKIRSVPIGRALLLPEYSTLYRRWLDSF
# MbtI inh: blocks the Mycobacterium tuberculosis siderophore enzyme MbtI. purified MbtI enzyme, fluorescence intensity read-out. inhibition, %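 (about 17 µg/mL by stock and volumes)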. hit rate 0.89% among 100,000. AID 493033;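 active = above 50% in both replicates, above 80% if mildly self-fluorescent; inactive = the rest, strongly fluorescent compounds included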;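 also: 0% = mean of negative and 100% = mean of positive controls; one replicate is shown; some compounds called inactive have numbers as strong as hits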
# PV pol inh intensity: also measured in PV pol inh; calls as there; % elongation; measured here: total intensity read-out; formula for this scale not given here;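 total fluorescence in place of polarization; lower means less elongation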
# * = called active by the depositor; / = not tested or not shown; & = joins results of further samples.
# Assay codes – A = Mtb MenB inh; B = PV pol inh; C = PV pol inh intensity; D = MbtI inh
> C/C(CC1(O)C(=O)N(C)c2ccccc21)=N\O (configuration not stated)
  A: -13; B: 102; C: 106; D: -4
> Cc1cc(C)c2c(c1)/C(=N/NC(=O)CCN1CCOCC1)CCC2
  A: 0; B: 105; C: 109; D: -15
> CCOc1ccc(N/C(N)=N/c2nc(C(F)(F)F)cc(C(F)(F)F)n2)cc1
  A: -13; B: 101; C: 104; D: -5
> CCOC(=O)N1CCC(NC(=O)CCNC(=O)Cn2ccc3ccccc3c2=O)CC1
  A: 20; B: 100; C: 103; D: -6
> CCN1CCN(CCCNC(=O)c2cnn(-c3ccc(C)cc3C)c2C2CCNCC2)CC1
  A: -18; B: 105; C: 100; D: -16
> COc1cccc(-c2nc(CS(=O)(=O)CC(=O)NC3CCCC(C)C3C)c(C)o2)c1 (configuration not stated)
  A: -22; B: 102; C: 97; D: 6
> O=C1CSC(CC(=O)Nc2ccccc2)=N1
  A: -16; B: /; C: /; D: 28
> COC(=O)c1ccccc1NC(=O)CN(C)Cc1ccccc1
  A: -27; B: 100; C: 105; D: -6
> COc1ccccc1NC(=O)C1=C(C)NC2=C(C(=O)CCC2)C1c1cc2c(cc1Br)OCO2 (configuration not stated)
  A: -13; B: 101; C: 99; D: -185
> N#C/C(=C\C=C\c1ccco1)C(N)=S
  A: -58; B: 84*; C: 94*; D: 68
> CC1(C)CC(=O)C2=C(C1)N(c1ccc(F)cc1)C(=O)C2(O)C(F)(F)F (configuration not stated)
  A: -4; B: 103; C: 101; D: 21
> NNC(=O)c1csc(CS(=O)(=O)Cc2ccco2)n1
  A: -12; B: 109; C: 116; D: 2
> CNC(=O)c1sc(=S)n(-c2ccccc2)c1N
  A: -14; B: 100; C: 102; D: 66*
> CC(C)N(C(=O)CSc1nc(O)cc(=O)[nH]1)C(C)C
  A: -66; B: 104; C: 112; D: 1
> N#Cc1c2c(c(-c3ccco3)[nH]c1=O)CCCC2
  A: -78; B: 98; C: 108; D: -4
> c1ccc2c(c1)ncn1c3ccccc3nc21
  A: -16; B: 102; C: 103; D: -14
> CCCC(=O)Nc1nonc1-c1ccccc1
  A: 11; B: 103; C: 103; D: -8
> CCCCc1ccc2nc(NC(=O)C3=NN(C)C(=O)CC3)sc2c1
  A: 3; B: 96; C: 95; D: -85
> COc1ccc(CNC(=O)C2CC(=O)N(C3CCCC3)C2)cc1 (configuration not stated)
  A: 12; B: 100; C: 103; D: 0
> FC(F)(F)c1cc(-c2cccs2)no1
  A: -12; B: 101; C: 101; D: -2
> COc1ccc(/C=C/C(=O)CC(=O)/C=C/c2cccc(O)c2OC)cc1O
  A: -20; B: 88&67; C: 180&192; D: -5
> CC(=O)Nc1cccc(NC(=O)C2CCCN2C(=O)Nc2ccccc2Cl)c1 (configuration not stated)
  A: -53; B: 102; C: 100; D: 2
> O=C(CSc1n[nH]c(-c2ccccc2)n1)c1cccs1
  A: -33; B: 101; C: 101; D: 29
> CCC(=O)N1c2ccccc2NC2=C(C(=O)CC(C)(C)C2)C1CC1CC=C(C)C1(C)C (configuration not stated)
  A: -13; B: 105; C: 109; D: /
> O=C(Nc1ccc(I)cc1)C1(S(=O)(=O)c2ccc(Cl)cc2)CC1
  A: /; B: 100; C: 95; D: -8

# Other compounds:
# Assay codes – A = Mtb MenB inh; B = PV pol inh; C = PV pol inh intensity; D = MbtI inh
> CSc1ncc(C(=O)NC2CC2)c(-c2ccccc2)n1
  A: 2; B: 100; C: 102; D: -16
> Cc1nc2sc(C(=O)N(C3=NC(C)CS3)c3ccc(Cl)cc3)c(C)c2c(=O)[nH]1 (configuration not stated)
  A: -14; B: 99; C: 103; D: -32
> NC(=O)COC(=O)c1cccc(I)c1
  A: /; B: 99; C: 97; D: -7
> O=C(Nc1ccc(Cl)cc1)C1C2CCCCC21 (configuration not stated)
  A: -9; B: 104; C: 101; D: 22
> CC(Oc1ccccc1)C(=O)Nc1nnc(C2CCCCC2)s1 (configuration not stated)
  A: -5; B: 107; C: 109; D: /
> Nc1nc(N)c2nc(-c3ccccc3)c(N)nc2n1
  A: 0; B: 100; C: 102; D: 18
> O=C(Nc1cccnc1)c1cc2nc(C3CC3)cc(C(F)(F)F)n2n1
  A: -48; B: 101; C: 104; D: -21
> Cc1ccc(S(=O)(=O)N(CCO)CCO)cc1
  A: 11; B: 103; C: 101; D: -4
> Cc1ccnc(NS(=O)(=O)c2ccc(NC(=O)c3ccccc3Br)cc2)n1
  A: -24; B: 103; C: 96; D: -3
> CCC(Sc1nc2ccc(Br)cc2c2nc3ccccc3n12)C(=O)NCC1CCCO1 (configuration not stated)
  A: -4; B: 100; C: 100; D: -15
> O=c1/c(=C/c2ccc(-c3cccc(C(F)(F)F)c3)o2)sc2nc(-c3ccncc3)nn12
  A: -10; B: 104; C: 111; D: -12
> COc1cccc(NC(=O)C2CC3CCCN3C23C(=O)N(C)c2ccccc23)c1 (configuration not stated)
  A: -3; B: 101; C: 102; D: 10
> O=c1cc(-c2ccccc2)oc2cc(O)c(O)c(O)c12
  A: -3; B: 100; C: 101; D: 38
> Cc1oc(S(=O)(=O)N2CCOCC2)cc1-c1nc(-c2ccc(C(C)(C)C)cc2)no1
  A: -1; B: 103; C: 104; D: -14
> Nc1cc(=O)nc(SCC(=O)N2CCCc3ccccc32)n1-c1ccccc1
  A: -13; B: 105; C: 104; D: 16
> CC1=C(C)CC(C(=O)NCc2ccc3c(c2)OCO3)C(C(=O)O)C1 (configuration not stated)
  A: -21; B: 104; C: 103; D: -4
> CCC1CCCCN1CC(=O)c1ccc(Cl)s1 (configuration not stated)
  A: -19; B: 100; C: 100; D: 6
> CN(C(=O)[C@H]1[C@@H]2C[C@@H]3[C@H]1C(=O)O[C@@H]3C2)c1ccccc1Cl
  A: -1; B: 102; C: 109; D: -7
> CC1(c2ccccc2)CC(C)(C)N(C(=O)CSc2ncn[nH]2)c2ccccc21 (configuration not stated)
  A: -9; B: 103; C: 104; D: /
> NC(=O)CSc1sc(=S)sc1SCC(N)=O
  A: -82; B: 102; C: 102; D: 8
> Cc1cccc(-n2c(=O)c3c4c(sc3n3c(=S)[nH]nc23)CCCC4)c1
  A: -43; B: 100; C: 98; D: -1
> Cc1ccc(S(=O)(=O)N2CCCC2C(N)=O)cc1 (configuration not stated)
  A: -33; B: 100; C: 100; D: 1
> CCc1ccc(-n2nnc(C(=O)Nc3ccccc3)c2C)cc1
  A: -35; B: 102; C: 107; D: -2
> O=C(COC(=O)C1(c2ccccc2)CC1)Nc1nnc(-c2ccccc2)o1
  A: -49; B: 104; C: 109; D: 10
> C=CCN1C(=O)C(C#N)=C(C)/C(=C\c2ccc(-c3cccc(C(=O)O)c3)o2)C1=O
  A: -8; B: 99; C: 100; D: 79

# Next structures
# Every second line gives: Mtb MenB inh	PV pol inh	PV pol inh intensity	MbtI inh
CCc1cccc(OCC(=O)Nc2ccc(S(=O)(=O)Nc3nccs3)cc2)c1
  -32	98	95	-10
COC(=O)c1cccc(S(=O)(=O)N(C)C)c1
  2	102	103	-3
CC(=O)NC1(c2ccccc2F)CCN(CC(=O)N2CCN(C(=O)c3ccco3)CC2)CC1
  5	105	100	-2
Cc1ccc(S(=O)(=O)NCC(=O)OCc2cc(=O)n3cc(C)ccc3n2)cc1
  3	99	96	80
CC1CCCN(C(=O)C2c3ccccc3C(=O)N(C)C2c2c[nH]c3ccccc23)C1 (configuration not stated)
  -12	104	105	-3
O=C(CCCN1C(=O)CSc2ncccc21)N1CCCCC1
  -15	102	97	-2
C/C(=N\NC(=O)Cc1cccs1)c1ccc(S(=O)(=O)N(C)C)cc1
  -9	101	103	-1
Cc1ccc2nc(C)cc(NC3CCCCC3)c2c1
  -20	99	105	-9
NC(=O)c1ccccc1NC(=O)c1ccccc1
  8	101	98	16
O=C(NCCCN1CCOCC1)Nc1noc2c1COc1ccccc1-2
  4	99	103	-21
COc1ccc(CN(C2CCCC2)S(=O)(=O)c2ccc(-n3cnnn3)cc2)cc1
  -9	99	103	0
N#Cc1ccccc1NC(=O)COC(=O)c1ccco1
  -11	109	108	-6
COc1ccc(C2(O)CCN(CC(=O)NC(C)(C)C)CC2)c(OC)c1
  -56	104	103	-16
CCCNC(=O)c1ccc2ccccc2c1
  -12	105	104	-3
COc1ccc(OC)c(-n2c(=S)[nH]c3cc(C(=O)NCc4ccc(F)cc4)ccc3c2=O)c1
  -29	104	105	-12
Cc1csc2ncnc(N3CCN(C(=O)Nc4ccc(OC(F)(F)F)cc4)CC3)c12
  -23	106	108	-3
Cc1ccc(C)c(N2CCN(CCCNS(=O)(=O)c3ccc4oc(=O)c5ncn(C)c5c4c3)CC2)c1
  -21	102	102	6
O=c1/c(=C/c2cccc(F)c2)sc2nc(C3COc4ccccc4O3)nn12 (configuration not stated)
  -9	101	102	-7
Cc1ccc(NC2(C#N)C(=O)Nc3ccccc32)cc1 (configuration not stated)
  /	105	101	3
Cc1ccc(S(=O)(=O)NCC2CCCO2)cc1 (configuration not stated)
  0	103	103	-6

# 5 compounds drawn at random from those above, as already listed:
# Every second line gives: Mtb MenB inh	PV pol inh	PV pol inh intensity	MbtI inh
CCCCc1ccc2nc(NC(=O)C3=NN(C)C(=O)CC3)sc2c1
  3	96	95	-85
O=C(COC(=O)C1(c2ccccc2)CC1)Nc1nnc(-c2ccccc2)o1
  -49	104	109	10
NC(=O)COC(=O)c1cccc(I)c1
  /	99	97	-7
Cc1ccc(S(=O)(=O)NCC2CCCO2)cc1 (configuration not stated)
  0	103	103	-6
Cc1cccc(-n2c(=O)c3c4c(sc3n3c(=S)[nH]nc23)CCCC4)c1
  -43	100	98	-1

# Continued.
# Every second line gives: Mtb MenB inh	PV pol inh	PV pol inh intensity	MbtI inh
Cc1ccc(C(=O)COC(=O)C2c3ccccc3Oc3ccccc32)cc1C
  -11	102	98	21
CC(C)C(=O)Nc1nc2ccc(S(C)(=O)=O)cc2s1
  -16	104	101	/
CSc1nc(-c2ccc(C)cc2)nc(N)c1C#N
  -8	101	103	0
COc1nsc(SC)c1C#N
  -13	106	109	/
N#CCCn1nnc(-c2ccc(Cl)cc2)n1
  -27	105	105	0
O=C(CSc1nnc2scc(-c3ccc(Cl)cc3)n12)NCc1ccc2c(c1)OCO2
  -1	100	101	16
CCOC(=O)NS(=O)(=O)c1ccccc1Cl
  12	101	97	-9
Cc1cc2cc3c(cc2nc1SCCN1CCCC1)OCCO3
  -37	102	111	15
O=C(O)c1cc2c(F)cccc2s1
  -16	104	98	25
CCOC(=O)Nc1nc2ccccc2s1
  /	101	105	-4
O=C(Nc1cccc(F)c1)c1c(Cl)nc2ccccn12
  /	102	104	-2
Cc1ccnc(NS(=O)(=O)c2ccc(NC(=O)CSc3nc(C)cc(=O)[nH]3)cc2)n1
  5	102	105	-1
O=C1CN(C(=O)c2ccc(S(=O)(=O)N3CCOCC3)cc2)C(c2ccccc2)c2cc(F)ccc2N1 (configuration not stated)
  -1	100	99	-12
COc1ccc(CNC(=O)/C=C/c2c(C)nn(C3CCS(=O)(=O)C3)c2Cl)cc1OC (configuration not stated)
  -28	106	96	4
C=CCNC(=O)c1ccc2c(c1)OCO2
  0	100	104	-11
COc1ccc(-c2noc(COC(=O)CSc3ncnc4sccc34)n2)c(OC)c1
  -15	105	110	-10
CN(C)c1ccc(NC(=O)CC(C(=O)O)N(C)C)cc1 (configuration not stated)
  3	100	106	0
CCc1sc(C(=O)N2CCN(S(=O)(=O)c3ccccc3)CC2)cc1Br
  -9	98	99	3
Fc1ccc(-n2nnnc2-c2cnccc2C(F)(F)F)cc1
  -1	101	96	0
CCOC(=O)Cc1c(C)c2ccc(N(CC)CC)cc2oc1=O
  -362	102	106	90

# Among those listed so far, these contain bromine.
# Every second line gives: Mtb MenB inh	PV pol inh	PV pol inh intensity	MbtI inh
COc1ccccc1NC(=O)C1=C(C)NC2=C(C(=O)CCC2)C1c1cc2c(cc1Br)OCO2 (configuration not stated)
  -13	101	99	-185
Cc1ccnc(NS(=O)(=O)c2ccc(NC(=O)c3ccccc3Br)cc2)n1
  -24	103	96	-3
CCC(Sc1nc2ccc(Br)cc2c2nc3ccccc3n12)C(=O)NCC1CCCO1 (configuration not stated)
  -4	100	100	-15
CCc1sc(C(=O)N2CCN(S(=O)(=O)c3ccccc3)CC2)cc1Br
  -9	98	99	3

# More results
# Every second line gives: Mtb MenB inh	PV pol inh	PV pol inh intensity	MbtI inh
CC(Sc1ncn[nH]1)C(=O)Nc1ccccc1C#N (configuration not stated)
  -13	100	103	5
Clc1ccc(NCCC2=CCCCC2)nn1
  34*	100	101	6
COc1cc(/C=C2/OC(=S)N(C)C2=O)ccc1O
  -141	109	110	7
N#CC(C(=O)CSc1nc2ccccc2n1-c1ccccc1)c1ccccc1 (configuration not stated)
  -11	111	114	17
CC(C)c1ccc(NC(=O)C2C3C=CC4(CN(Cc5cccnc5)C(=O)C24)O3)cc1 (configuration not stated)
  -15	104	109	8
Cn1c(=O)c2c(nc(SCCN3CCOCC3)n2Cc2ccccc2Cl)n(C)c1=O
  15	102	100	5
CCCNC(=O)NCc1cc(C)n(-c2ccc(OC)cc2)c1C
  -7	104	111	-5
CC(C)(C)OC(=O)CN1C(=O)c2ccccc2S1(=O)=O
  -22	105	107	/
Cc1onc(-c2c(F)cccc2Cl)c1NC(=O)OCc1sccc1-n1c(C)ccc1C
  -11	108	113	-11
NC(=O)N/N=C/c1cccc(C(F)(F)F)c1
  6	100	102	0

# Not a retest: an excerpt of the list.
# Every second line gives: Mtb MenB inh	PV pol inh	PV pol inh intensity	MbtI inh
C/C(CC1(O)C(=O)N(C)c2ccccc21)=N\O (configuration not stated)
  -13	102	106	-4
Cc1cc(C)c2c(c1)/C(=N/NC(=O)CCN1CCOCC1)CCC2
  0	105	109	-15

# Screening results as filed in PubChem BioAssay.
